# eIF4H inh = inhibitors of RNA binding by human eIF4H | Q15056 | eIF4H fluorescence polarization binding assay | inhibition, % at 35 µM | 290,000 tested, 0.94% active | AID 2012;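 active means 50% or more with normal probe brightness, or confirmed in later tests; inconclusive means above 50% with abnormal brightness, or retests that disagree; inactive means below 50% or failed in later tests; about a fifth of its hits are not listed in these tables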;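 further: calls also rest on retests at 20 µM and on dose response follow-up; 0% = protein and probe with vehicle and 100% = probe without protein; strong numbers were not always called active; many hits fall short of the cut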
# UUG fidelity = alters start codon recognition fidelity in yeast | activity score, % at 18.7 µM | S. cerevisiae UUG-firefly luciferase reporter, luminescence/redox ratio | 350,000 tested, 0.13% active | AID 602363;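 active means replicate mean at a twofold rise or more, about +100% in these data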;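 further: firefly luciferase made from a UUG start codon reports start codon fidelity; reporter light over untreated wells divided by growth signal over untreated wells; some hits fall short of that in this replicate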
# Rce1 inhib = inhibitors of yeast Ras-converting enzyme | Q03530 | yeast membranes, quenched prenylated peptide cleavage fluorescence | calls only | 290,000 tested, 0.27% active;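 active means fall in fluorescence gain of 50% or more versus controls, with final raw signal at or below 3038400; inconclusive means same 50% fall but final raw signal above 3038400; inactive means fall in fluorescence gain under 50%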;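 further: plate controls were neutral control wells for no effect and wells lacking membranes for full effect; tested at 10 µM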
# Target sequence (Q03530 whole entry, looked up): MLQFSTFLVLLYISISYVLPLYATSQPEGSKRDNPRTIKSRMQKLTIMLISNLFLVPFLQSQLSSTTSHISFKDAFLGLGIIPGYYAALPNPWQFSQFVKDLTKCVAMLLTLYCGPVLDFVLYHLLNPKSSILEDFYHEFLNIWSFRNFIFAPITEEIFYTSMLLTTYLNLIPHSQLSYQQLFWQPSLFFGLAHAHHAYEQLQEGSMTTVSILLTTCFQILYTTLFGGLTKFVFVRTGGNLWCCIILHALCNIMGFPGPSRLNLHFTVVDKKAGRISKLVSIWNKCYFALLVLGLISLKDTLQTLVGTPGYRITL
# Env fusion inh = HIV envelope-mediated fusion inhibition | HeLa-JRFL Env/CEM21 cell fusion, luciferase | 360,000 tested, 1.1% active | inhibition, % at 12.3 µM;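 active means mean replicate inhibition score of at least 50 and every replicate individually at or above 50; inconclusive means only one of the two criteria met; inactive means mean below 50 and not all replicates reaching 50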;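 further: 0% = plate neutral controls and 100% = maraviroc near 300 nM; one replicate is shown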
# PABP polyA inh = PABP-poly(A) binding inhibition. PABP-poly(A) RNA binding, fluorescence polarization. inhibition, % at 35 µM. P11940. AID 2014. 290,000 tested, 1% active;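 active means 50% or more with normal probe brightness, or confirmed in later tests; inconclusive means above 50% with abnormal brightness, or retests that disagree; inactive means below 50% or failed in later tests; about a fifth of its hits are not listed in these tables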;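 further: calls also rest on retests at 20 µM and on dose response follow-up; controls were probe without protein and protein plus probe with vehicle; some compounds called inactive have numbers as strong as hits; many hits fall short of the cut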
# Target sequence (P11940 whole entry, looked up): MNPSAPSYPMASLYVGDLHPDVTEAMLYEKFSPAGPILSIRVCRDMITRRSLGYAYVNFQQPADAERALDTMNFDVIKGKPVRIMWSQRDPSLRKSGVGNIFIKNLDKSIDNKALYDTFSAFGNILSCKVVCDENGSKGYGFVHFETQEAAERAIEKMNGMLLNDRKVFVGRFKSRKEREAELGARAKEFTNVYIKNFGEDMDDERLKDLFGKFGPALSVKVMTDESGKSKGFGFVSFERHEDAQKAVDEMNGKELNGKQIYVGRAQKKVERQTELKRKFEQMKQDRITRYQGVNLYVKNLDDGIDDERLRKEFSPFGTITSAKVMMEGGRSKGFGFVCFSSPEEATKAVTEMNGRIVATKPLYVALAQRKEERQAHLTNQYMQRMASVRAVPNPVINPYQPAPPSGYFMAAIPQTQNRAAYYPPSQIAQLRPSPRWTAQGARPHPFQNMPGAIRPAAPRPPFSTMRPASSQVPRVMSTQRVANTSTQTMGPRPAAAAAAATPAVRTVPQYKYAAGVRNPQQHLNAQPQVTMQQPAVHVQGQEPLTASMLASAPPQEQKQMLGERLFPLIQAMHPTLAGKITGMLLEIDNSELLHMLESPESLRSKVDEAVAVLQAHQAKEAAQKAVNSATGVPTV
# MT1-MMP act inh = inhibitors of human MT1-MMP activation | P50281 | HT1080 RFP-PRO-GFP cells, GFP/RFP ratio fluorescence, overnight; percent of plate control window, DMSO zero | GFP/RFP ratio change, % at 20 µM | 360,000 tested, 0.061% active | AID 651647;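 active means GFP/RFP ratio change of at least 30% with cell ATP level not reduced by more than half and red fluorescence within 50% of control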; further: strong numbers were not always called active
#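 Assay system: HT1080 RFP-PRO-GFP cells. Benchmarks: DMSO vehicle wells and RFP-L50D-GFP reporter cell wells. Times: overnight cell settling, then overnight compound exposure, 37 °C, 5% CO2. Compound: 20 µM single dose, 1% DMSO. Read-out basis: GFP/RFP fluorescence ratio.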
# CSC inhib = cancer stem cell inhibition; cancer stem cell-like cells viability, luminescence; inhibition, % at 7.5 µM; 300,000 tested, 1.1% active; AID 2717;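 active means mean at 75% or more and at least half the replicates too; inconclusive means mean and replicates disagree; tested in HMLE shEcad cells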;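 further: 0% = median of negative and 100% = median of positive control wells; the first replicate is given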
# eIF4H inh retest = also measured in eIF4H inh; calls as there; inhibition, %; compound at 20 µM; confirmation average;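 mean of two retest wells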
# PABP polyA inh retest = second read-out of PABP polyA inh, no call of its own (marks repeat the call); inhibition, %; compound at 20 µM; confirmation repeats;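 mean of two retest wells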
# MT1-MMP act inh RFP = also measured in MT1-MMP act inh; calls as there; RFP signal change, %; measured here: RFP expression control read;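 0 = vehicle wells; hits needed this value within 50% of zero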
# An asterisk follows results filed as active; i = inactive; ? = inconclusive; / = not tested or not shown; + = active, no number. Random draw from the library. Share with any hit: about 2.9%.
SMILES,eIF4H inh,UUG fidelity,Rce1 inhib,Env fusion inh,PABP polyA inh,MT1-MMP act inh,MT1-MMP act inh RFP,CSC inhib,others
Cc1ccc(NC(=O)Cn2nnc(C(=O)NCCc3ccccc3)c2N)cc1Cl,-5.0,-22.1,i,-3.8,-14.4,1.5,4.9,-12.4,
O=C(NCc1ccccc1)C1Nc2ccc(OC(F)(F)F)cc2C2C=CCC12 (stereo unspecified),/,-12.5,i,-1.7,/,-0.4,-7.2,2.1,
Cc1ccc(NC(=O)C2(C)CCN2Cc2csc3ccccc23)cc1 (stereo unspecified),/,1.8,/,?,/,-2.0,-6.8,/,
CCC(=O)N1CCN(C(=O)CC)C1c1ccccc1,-0.7,-4.7,i,/,-4.6,2.3,6.9,-8.8,
Cc1cc(C)n2cc(CSC3=NCCS3)nc2n1,-8.1,2.6,+,/,-4.7,-0.5,5.6,-2.8,
Cc1ccc(Nc2nc(N)nc(CN3CCN(c4ccccc4F)CC3)n2)cc1,-13.1,-35.2,i,-191.5,5.6,7.5,1.3,22.7,
Cc1cc(C)cc(NC(=S)/C(=C(\[O-])c2ccc(Cl)cc2Cl)[n+]2ccccc2)c1,0.8,-27.5,i,8.9,49.8,2.9,3.9,44.8,
O=C(Nc1ccc(CN2CCOCC2)cc1)c1ccc(Br)cc1,1.4,-9.2,i,0.2,-9.9,-2.3,-22.4,0.4,
O=C(NCc1ccco1)c1cc(S(=O)(=O)N2CCCC2)ccc1Cl,-3.8,-9.6,i,-7.7,-6.7,0.9,0.9,-9.1,
CS(=O)(=O)N1CCN(CC2CC3C=CC2C3)CC1 (stereo unspecified),-4.5,-23.0,i,-12.3,6.4,-2.7,3.5,26.7,
CCOC(=O)c1cc(C(=O)OCC)c(=O)[nH]c1N1CCCCC1,3.2,-3.5,i,8.6,-6.3,3.0,2.3,-10.4,
CC1(C)Cc2c(C#N)c(NCCN3CCOCC3)nc(-c3ccco3)c2CO1,4.3,-5.9,/,-52.5,4.6,-5.1,-4.0,10.6,
COc1ccccc1NC(=O)N1CCc2c([nH]c3ccccc23)C1C(F)(F)F (stereo unspecified),-1.2,/,/,20.0,-5.2,2.9,-3.6,7.7,
O[C@@H]1C[C@H](c2ccc(Cl)cc2)N(Cc2cccs2)C[C@H]1n1cc(C2CC2)nn1,/,-12.6,/,-15.7,/,3.9,-1.6,/,
Cc1ccc(N2CC(C(=O)OCC(=O)c3ccc([N+](=O)[O-])cc3)CC2=O)cc1 (stereo unspecified),-6.2,-13.6,i,13.5,2.0,2.4,3.7,/,
C=CCc1ccccc1OCC(O)CN(C(C)C)C(C)C (stereo unspecified),-1.5,-4.8,i,/,-2.1,3.9,2.8,11.5,
CCCS(=O)(=O)N1CCCC(C(=O)c2cccc(Cl)c2)C1 (stereo unspecified),-13.8,/,i,10.2,-10.0,1.8,0.6,-7.3,
c1cncc(CSc2nnc3ccc(-c4cccs4)nn23)c1,1.6,/,i,8.4,5.3,-0.1,0.3,/,
COc1ccc(Cl)cc1NC(=O)CN(C)C(=O)Cn1c(=O)oc2ccccc21,/,-12.0,i,5.1,/,-0.3,0.3,4.5,
O=c1/c(=C/c2ccco2)sc2nc(-c3ccccc3Br)nn12,44.9*,-6.2,/,-178.9,53.8*,8.3,1.3,17.7,eIF4H inh retest=95.2*;PABP polyA inh retest=74.2*
CCC1(CC)Cc2ccccc2-c2nc(CCl)[nH]c(=O)c21,-9.3,-9.3,i,13.8,-1.7,13.5,1.6,1.6,
CCn1cc(C(=O)N2CCN(C(=O)c3ccco3)CC2)c2cc(OC)c(OC)cc2c1=O,-4.8,-2.2,i,-71.6,-2.0,7.9,4.4,7.2,
CCCC(=O)N1CCCC1(C)C(=O)Nc1cccc(OC(C)C)c1 (stereo unspecified),/,-17.1,/,-1.9,/,-5.5,7.6,/,
Cc1cccc(C)c1-n1c(C)nn(Cc2ccc([N+](=O)[O-])cc2)c1=O,9.8,7.8,i,-11.8,0.1,1.8,-1.7,-12.1,
CCOC(=O)Cc1c(C)nc2c(-c3cccc(Br)c3)cnn2c1C,11.2,/,i,7.3,-9.6,-2.5,-4.4,13.7,
S=c1nc(-c2ccc(Br)cc2)[nH]c2ccccc12,-0.3,-10.8,i,5.7,10.6,5.4,-0.7,12.4,
Cc1cc(C)c(-c2cc(NC(=O)COC(=O)c3ccc(CO)cc3)n(-c3ccccc3)n2)cc1C,-9.3,/,i,-38.1,0.7,-2.4,0.3,8.2,
Cn1c(=O)c2c(ncn2CC(O)CNc2ccc(Br)cc2)n(C)c1=O (stereo unspecified),-1.2,-13.7,i,/,3.3,-0.3,-2.8,8.6,
CC(=O)c1cnc(-c2ccccc2Cl)s1,-4.4,-22.5,i,-71.8,3.0,1.3,0.5,-4.5,
Cn1cccc/c1=N\c1cccc[n+]1C,/,-11.8,i,13.0,/,-0.7,-11.9,4.4,
Cn1c2ccccc2c2nnc(SCC(=O)Nc3cccc(C(=O)O)c3)nc21,3.0,-9.8,i,-7.0,30.9,-4.5,2.4,-8.7,
CCOC(=O)c1sc(NC(=O)CSc2nnc(Cc3ccccc3)o2)c(C(=O)OCC)c1C,-5.3,/,i,25.0,-11.9,-5.9,-6.7,19.3,
COCc1nnc(NC(=O)CCc2ccc(OC)cc2)s1,-4.9,-11.4,i,19.5,-6.1,0.9,-1.3,-11.1,
CCCCNC(=O)n1c(=O)oc2ccc(Cl)cc21,-1.3,-23.6,i,-201.8,11.1,-11.2,-2.7,-5.7,
Cc1ccc(S(=O)(=O)NCC(=O)N(CC(=O)NCc2ccccc2)CC2CCCO2)cc1 (stereo unspecified),-3.0,-4.4,i,/,0.0,-2.4,-2.1,8.8,
CCOC(=O)C1C(=O)NC(c2ccccc2)=NC1c1ccc(OC)cc1 (stereo unspecified),-12.7,/,i,18.5,5.4,-2.4,-0.2,-10.5,
O=C(CNC(=O)c1ccncc1)N/N=C/c1ccccn1,1.0,/,i,-14.3,-14.0,-3.8,2.5,-13.2,
COc1cc(/C=C/C(=O)O)ccc1OCc1cnc(Cl)s1,-13.2,/,i,-7.6,-5.6,-3.1,-2.9,5.0,
O=C(CSc1nnc2ccc(-c3ccncc3)nn12)N1CCCCC1,-2.6,-20.7,i,-8.4,-8.0,0.8,3.0,-2.4,
COC(=O)c1cccc(C(=O)N2CCC(CCC(=O)NCc3ccc(F)cc3)CC2)c1,-15.0,1.2,i,-9.7,-7.5,2.9,2.1,11.2,
CCc1ccccc1N(CC)C(=O)c1cn(CC)c(=O)c2cc(OC)c(OC)cc12,0.8,18.8,i,-81.5,1.7,-5.5,-6.9,-5.9,
CCOc1ccccc1NC(=O)[C@@H](NC(=O)c1ccccc1F)C(C)C,-3.0,-13.2,i,-3.7,9.0,2.9,2.5,-0.2,
COc1cc2c(cc1OC)CN(C(=O)CCC(=O)c1ccc(F)cc1)CC2,/,-15.6,/,/,/,-1.3,-0.4,-24.9,
CCn1c(O)c2ccc(C(=O)N=NC(=O)c3ccccc3)cc2c1O,-5.8,-16.8,i,1.3,7.4,0.7,1.0,7.2,
Cc1cc(N2C(=O)C(O)=C(C(=O)c3cccs3)C2c2ccc(F)cc2)no1 (stereo unspecified),-3.6,/,i,11.0,15.2,6.4,-2.2,-17.6,

# Five records drawn at random from those above, as already listed:
SMILES,eIF4H inh,UUG fidelity,Rce1 inhib,Env fusion inh,PABP polyA inh,MT1-MMP act inh,MT1-MMP act inh RFP,CSC inhib,others
CCn1cc(C(=O)N2CCN(C(=O)c3ccco3)CC2)c2cc(OC)c(OC)cc2c1=O,-4.8,-2.2,i,-71.6,-2.0,7.9,4.4,7.2,
CCn1c(O)c2ccc(C(=O)N=NC(=O)c3ccccc3)cc2c1O,-5.8,-16.8,i,1.3,7.4,0.7,1.0,7.2,
O=C(Nc1ccc(CN2CCOCC2)cc1)c1ccc(Br)cc1,1.4,-9.2,i,0.2,-9.9,-2.3,-22.4,0.4,
CC(=O)c1cnc(-c2ccccc2Cl)s1,-4.4,-22.5,i,-71.8,3.0,1.3,0.5,-4.5,
Cc1ccc(NC(=O)Cn2nnc(C(=O)NCCc3ccccc3)c2N)cc1Cl,-5.0,-22.1,i,-3.8,-14.4,1.5,4.9,-12.4,

# Carrying on:
SMILES,eIF4H inh,UUG fidelity,Rce1 inhib,Env fusion inh,PABP polyA inh,MT1-MMP act inh,MT1-MMP act inh RFP,CSC inhib,others
C[C@]12C=CC(=O)C=C1CC[C@@H]1C2[C@@H](O)C[C@@]2(C)C1CC[C@]2(O)C(=O)COC(=O)CCC(=O)O (stereo partly specified),-4.6,-9.3,i,-204.2,6.1,-2.7,1.4,-3.4,
COCC(C)NC(=O)CSc1nc2nn(-c3ccccc3)c(=O)c-2c2n1CCCCC2 (stereo unspecified),-4.9,-13.6,i,-0.9,4.7,-1.1,-2.7,/,
O=C(NCc1ccc2c(c1)OCO2)c1cccs1,-7.2,-3.6,i,-18.5,-0.2,-3.6,-5.3,0.5,
COc1ccc(-c2nnn(CC(=O)N(CCCN3CCOCC3)C(C(=O)NC3CCCC3)c3ccco3)n2)cc1 (stereo unspecified),-13.1,/,i,-5.1,0.9,-1.9,0.0,16.3,
CC(NC(=O)CSc1cccc(C(F)(F)F)c1)c1ccccc1 (stereo unspecified),6.9,/,i,27.8,4.9,-0.5,-0.8,-14.9,
Cc1cccc(N(Cc2ccccc2)C(=O)c2ccc(CS(C)(=O)=O)cc2)c1,-5.4,6.2,i,/,-3.4,-3.4,2.0,-17.2,
Cc1cccc(C(=O)NC2CCN(CC(=O)N3CCOCC3)CC2)c1,1.7,0.5,i,-37.0,-7.1,1.3,12.8,0.0,
CN1C(=O)/C(=C/C=C2\SCCN2C)SC1=S,?,/,i,/,34.5,/,/,/,
C/C(CC(=O)Nc1ccc(N(C)C)cc1)=N\NC(=O)c1ccc([N+](=O)[O-])cc1,11.8,-13.6,i,-12.5,1.7,1.6,-1.8,5.4,
Cc1ccc2c(c1)C1CC(C)(O2)N(c2cccc(C(=O)N3CCN(c4ccccn4)CC3)c2)C(=O)N1 (stereo unspecified),-6.6,-9.9,i,8.0,-0.5,2.1,0.8,0.9,
CCOC(=O)C(NC(=O)c1ccccc1)(OCc1ccc(F)cc1)C(F)(F)F (stereo unspecified),1.9,/,i,15.1,1.9,-6.1,-1.9,6.0,
C=CCn1c(SCC(=O)NC2CCS(=O)(=O)C2)nnc1-c1ccc(Cl)cc1 (stereo unspecified),/,/,i,24.6,/,-0.3,0.1,4.6,

# Filtered by structure, the entries above containing a CF3 group.
SMILES,eIF4H inh,UUG fidelity,Rce1 inhib,Env fusion inh,PABP polyA inh,MT1-MMP act inh,MT1-MMP act inh RFP,CSC inhib,others
O=C(NCc1ccccc1)C1Nc2ccc(OC(F)(F)F)cc2C2C=CCC12 (stereo unspecified),/,-12.5,i,-1.7,/,-0.4,-7.2,2.1,
COc1ccccc1NC(=O)N1CCc2c([nH]c3ccccc23)C1C(F)(F)F (stereo unspecified),-1.2,/,/,20.0,-5.2,2.9,-3.6,7.7,
CC(NC(=O)CSc1cccc(C(F)(F)F)c1)c1ccccc1 (stereo unspecified),6.9,/,i,27.8,4.9,-0.5,-0.8,-14.9,
CCOC(=O)C(NC(=O)c1ccccc1)(OCc1ccc(F)cc1)C(F)(F)F (stereo unspecified),1.9,/,i,15.1,1.9,-6.1,-1.9,6.0,

# Assay outcomes (PubChem)
